Assay outcomes (PubChem BioAssay)
HIV Env fusion = HIV envelope-mediated fusion inhibition; HeLa-JRFL Env/CEM21 cell fusion, luciferase; hit rate 1.1% among 360,000; inhibition, % at 12.3 µM;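 active = mean replicate inhibition score of at least 50 and every replicate individually at or above 50; inconclusive = only one of the two criteria met; inactive = mean below 50 and not all replicates reaching 50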;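 also: 0% = plate neutral controls and 100% = maraviroc near 300 nM; one replicate is shown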
PABP polyA inh = blocks human PABP binding to poly(A) RNA. P11940. fluorescence polarization. inhibition, % at 35 µM. hit rate 1% among 290,000. AID 2014;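 active = 50% or more with normal probe brightness, or confirmed in later tests; inconclusive = above 50% with abnormal brightness, or retests that disagree; inactive = below 50% or failed in later tests; about a fifth of its hits are not listed in these tables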;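 also: calls also rest on retests at 20 µM and on dose response follow-up; controls were probe without protein and protein plus probe with vehicle; some compounds called inactive have numbers as strong as hits; many hits fall short of the cut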
Rce1 inh = yeast Ras-converting enzyme inhibition | hit rate 0.27% among 290,000 | Q03530 | yeast membranes, quenched prenylated peptide cleavage fluorescence | calls only;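 active = fall in fluorescence gain of 50% or more versus controls, with final raw signal at or below 3038400; inconclusive = same 50% fall but final raw signal above 3038400; inactive = fall in fluorescence gain under 50%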;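 also: plate controls were neutral control wells for no effect and wells lacking membranes for full effect; tested at 10 µM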
Target sequence (Q03530 whole entry, looked up): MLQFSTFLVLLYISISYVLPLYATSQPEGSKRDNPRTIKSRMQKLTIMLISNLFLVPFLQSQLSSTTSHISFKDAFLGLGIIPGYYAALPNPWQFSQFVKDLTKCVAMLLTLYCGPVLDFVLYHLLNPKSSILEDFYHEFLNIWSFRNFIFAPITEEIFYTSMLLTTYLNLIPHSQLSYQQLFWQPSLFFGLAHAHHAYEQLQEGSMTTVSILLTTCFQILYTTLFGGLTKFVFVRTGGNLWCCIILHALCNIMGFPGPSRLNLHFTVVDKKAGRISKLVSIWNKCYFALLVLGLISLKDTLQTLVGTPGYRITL
CSC inhib = cancer stem cell inhibition. cancer stem cell-like cells viability, luminescence. hit rate 1.1% among 300,000. inhibition, % at 7.5 µM;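 active = mean at 75% or more and at least half the replicates too; inconclusive = mean and replicates disagree; tested in HMLE shEcad cells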;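 also: 0% = median of negative and 100% = median of positive control wells; the first replicate is given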
MT1-MMP act inh = blocks activation of human MT1-MMP. hit rate 0.061% among 360,000. P50281. HT1080 RFP-PRO-GFP cells, GFP/RFP ratio fluorescence, overnight; percent of plate control window, DMSO zero. GFP/RFP ratio change, % at 20 µM;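 active = GFP/RFP ratio change of at least 30% with cell ATP level not reduced by more than half and red fluorescence within 50% of control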; also: strong numbers were not always called active
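Assay system: HT1080 RFP-PRO-GFP cells. Benchmarks: DMSO vehicle wells and RFP-L50D-GFP reporter cell wells. Times: overnight cell settling, then overnight compound exposure, 37 °C, 5% CO2. Compound: 20 µM single dose, 1% DMSO. Read-out basis: GFP/RFP fluorescence ratio.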
UUG fidelity = alters start codon recognition fidelity in yeast. S. cerevisiae UUG-firefly luciferase reporter, luminescence/redox ratio. activity score, % at 18.7 µM. hit rate 0.13% among 350,000. AID 602363;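 active = replicate mean at a twofold rise or more, about +100% in these data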;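 also: firefly luciferase made from a UUG start codon reports start codon fidelity; reporter light over untreated wells divided by growth signal over untreated wells; some hits fall short of that in this replicate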
eIF4H inh = inhibitors of RNA binding by human eIF4H. inhibition, % at 35 µM. eIF4H fluorescence polarization binding assay. Q15056. hit rate 0.94% among 290,000;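 active = 50% or more with normal probe brightness, or confirmed in later tests; inconclusive = above 50% with abnormal brightness, or retests that disagree; inactive = below 50% or failed in later tests; about a fifth of its hits are not listed in these tables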;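 also: calls also rest on retests at 20 µM and on dose response follow-up; 0% = protein and probe with vehicle and 100% = probe without protein; strong numbers were not always called active; many hits fall short of the cut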
eIF4H inh retest = recorded beside eIF4H inh, whose call it bears; inhibition, %; compound at 20 µM; confirmation average;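 mean of two retest wells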
PABP polyA inh retest = recorded beside PABP polyA inh, whose call it bears; inhibition, %; compound at 20 µM; confirmation repeats;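 mean of two retest wells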
MT1-MMP act inh RFP = further read-out of MT1-MMP act inh, marked with its call; RFP signal change, %; measured here: RFP expression control read;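 0 = vehicle wells; hits needed this value within 50% of zero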
Starred values were filed as active, the others as inactive; i = inactive; ? = inconclusive; · = not tested or not shown.

SMILES	HIV Env fusion	PABP polyA inh	Rce1 inh	CSC inhib	MT1-MMP act inh	MT1-MMP act inh RFP	UUG fidelity	eIF4H inh	others
O=c1[nH]oc(O)c1-c1ncc(C(F)(F)F)cc1Cl	9	-8	i	-6	-3	0	·	0
CCn1c2ccc(C)cc2c2nnc(SCCN3CCOCC3)nc21	-8	0	i	13	-2	0	·	-6
COC(=O)CSc1nc2c(c(C3CC=CCC3)c1C#N)CCC2 (stereo not drawn)	·	4	i	14	-3	0	1	1
CCOC(=O)CNC(=O)COc1coc(CN2CCN(c3ccccc3F)CC2)cc1=O	2	7	i	-10	2	4	-16	0
COC(=O)CCCC(=O)NC(C)c1cnn(-c2ccccc2C)c1C (stereo not drawn)	25	-4	i	5	-1	0	-22	-9
COc1ccccc1CCN=C(N)NS(=O)(=O)c1cccs1	5	-1	i	-10	0	2	·	1
COc1cc(C2C(C#N)=C(C)NC(C)=C2C#N)cc(OC)c1OC	-12	-4	·	-8	-1	0	-17	2
O=C(CSc1nnc(CNC(=O)c2c(F)cccc2F)o1)c1ccc(Cl)cc1	1	·	·	·	1	-4	7	·
O=[N+]([O-])c1cc(CN2CCCC2)c2cccnc2c1O	·	2	·	34	7	-4	·	87*	eIF4H inh retest=75*;PABP polyA inh retest=45
Cc1ccc(-c2noc(CNC(=O)c3ccoc3C)n2)cc1	13	-12	i	11	2	1	-24	0
COc1ccc([N+](=O)[O-])cc1N(CC(=O)NCCSc1ccc(C)cc1)S(C)(=O)=O	45	-7	i	16	2	2	·	-9
COc1cccc(C(=O)NCC(=O)NCc2cc(=O)n(C)c(=O)n2C)c1OC	9	10	i	-5	2	3	-14	2
COc1ccc([C@H]2CC(=O)C=C(c3ccc(F)cc3OCc3ccccc3)C2)cc1	20	·	·	-1	5	-7	-23	·
CCn1c(SCC(=O)N2CCOCC2)nc2c([nH]c3ccccc32)c1=O	6	-9	i	-15	0	-1	-11	0
Cc1c(N2C(=O)/C(=C\c3ccc(N(C)C)cc3)N(C)C2=S)c(=O)n(-c2ccccc2)n1C	9	0	·	16	-68	17	·	?
CC(NC(=O)COc1cc(=O)n(C)c2ccccc12)c1ccc2c(c1)OCCO2 (stereo not drawn)	-46	9	i	-21	7	7	1	-20
O=[N+]([O-])c1cccc(-c2ccc(SCc3ccccn3)nn2)c1	-50	-8	i	-15	-2	-5	-17	-8
Cc1ccc(S(=O)(=O)N2CCCC(C)C2)cc1 (stereo not drawn)	1	0	i	-7	-4	-3	-14	8
CC1(C(=O)Nc2cccnc2)Cc2c(-c3cccc(C(F)(F)F)c3)ccnc2O1 (stereo not drawn)	49	·	·	·	-4	-1	15	·
COc1ccc(Cl)cc1-c1cc(C(=O)Nc2ccc(F)cc2)[nH]n1	-36	·	·	·	2	-2	-23	·
COc1cc(C(=O)O/N=C(\N)c2ccccn2)cc(OC)c1OC	-15	11	i	1	4	3	·	-10
O=C(NCCc1cccnc1)c1cc(COc2ccc(F)cc2F)on1	8	-2	i	-2	2	-4	-11	-2
CCCC(=O)Nc1ccc2nc(SCC(=O)N3CCCC3)sc2c1	-18	0	i	-3	1	-3	·	-9
COc1cccc(OCCn2c(C)c(/C=N/n3cnnc3)c3ccccc32)c1	·	-10	i	3	2	-5	-13	-12
CC(C)(CC(=O)O)CC(=O)NCc1c(Cl)cccc1Sc1ccc(Cl)cc1	7	8	i	41	2	-2	4	-5
CN(C)Cc1ccccc1COc1ccccc1	-11	-8	i	7	5	10	-4	-15
O=c1cc(NCc2ccccc2)nc2n1CCCS2	·	5	i	17	3	5	·	-1
O=[N+]([O-])c1cc(S(=O)(=O)N2CCCCCC2)ccc1F	-75	3	·	102*	2	-1	·	-4
Cc1cnc(CNC(=O)C2CCC(=O)N(CCc3cccc(F)c3)C2)[nH]1 (stereo not drawn)	-1	-2	i	-11	0	5	-41	8
CCCC(=O)N1CCN(c2nc3c(OC)ccc(Cl)c3s2)CC1	-5	5	i	-11	-1	-5	-7	1
O=C(Nc1ccnn1C1CCN(C2CCCC2)CC1)c1ccccc1Cl	-5	9	i	12	2	3	4	-1
O=C(CCN=C1NS(=O)(=O)c2ccccc21)OCc1nnc(-c2ccc([N+](=O)[O-])cc2)o1	8	·	·	-10	2	3	-15	·
Fc1ccc(-c2ccnc3nc(N4CCOCC4)nn23)cc1	-21	3	i	-18	-5	-2	-19	-3
COC(=O)C1=C(C)N=C2SC(C#N)=C(N)N2C1c1cccc(OC)c1 (stereo not drawn)	·	10	i	-3	-20	4	·	-7
O=C(c1ccc(NC2=NC3CS(=O)(=O)CC3S2)cc1)N1CCN(c2ccc([N+](=O)[O-])cc2)CC1 (stereo not drawn)	-2	1	i	-4	4	9	-17	9
CC(C(O)C12CC3CC(CC(C3)C1)C2)N1CCCCC1 (stereo not drawn)	-9	-3	i	4	-2	1	·	-5
Cc1ccc(C(C[N+](=O)[O-])c2c(C)cc3ccccn23)cc1 (stereo not drawn)	-8	-2.2*	i	32	-3	1	·	54*	eIF4H inh retest=85*;PABP polyA inh retest=72*
Nn1c(SCC(=O)Nc2nnc(-c3ccccc3)o2)nnc1C1CC1	-23	·	i	-8	-2	3	-28	·
O=C(O)COn1c(-c2ccc(Cl)cc2)nc2ccc(Cl)cc21	-94	23	i	11	5	4	·	-5
O=c1cc(O)n(C2CCCCCC2)c(=O)[nH]1	-6	17*	i	-12	-13	4	14	56	eIF4H inh retest=43;PABP polyA inh retest=91*

Ordered by molar mass (ascending): some entries from above.
SMILES	HIV Env fusion	PABP polyA inh	Rce1 inh	CSC inhib	MT1-MMP act inh	MT1-MMP act inh RFP	UUG fidelity	eIF4H inh	others
O=C(O)COn1c(-c2ccc(Cl)cc2)nc2ccc(Cl)cc21	-94	23	i	11	5	4	·	-5
CCCC(=O)Nc1ccc2nc(SCC(=O)N3CCCC3)sc2c1	-18	0	i	-3	1	-3	·	-9
O=C(CCN=C1NS(=O)(=O)c2ccccc21)OCc1nnc(-c2ccc([N+](=O)[O-])cc2)o1	8	·	·	-10	2	3	-15	·

Further compounds.
SMILES	HIV Env fusion	PABP polyA inh	Rce1 inh	CSC inhib	MT1-MMP act inh	MT1-MMP act inh RFP	UUG fidelity	eIF4H inh	others
CCOC(=O)c1sc(NC(=O)CSc2nc3c(cc2C#N)CCCCCC3)c(C#N)c1C	-2	-4	i	·	-48	-20	-15	2
O=C(Nc1ccc(S(=O)(=O)NC2=NCCCCC2)cc1)c1ccco1	3	?	i	-3	2	6	·	0
O=C(C1=C[C@H](c2ccc(Br)cc2)C[C@H](OCc2ccc(CO)cc2)O1)N1CCOCC1	11	-2	i	-8	-2	-1	-15	-8
FC(F)(F)c1cccc(NC(=S)NNC(=S)Nc2cccc(C(F)(F)F)c2)c1	·	-5	i	110*	·	·	·	4
Cc1csc(NC(=O)CSc2nnc(-c3ccoc3C)n2C(C)c2ccccc2)n1 (stereo not drawn)	21	-9	i	-11	-6	-8	-4	6
CCOC(=O)N1CCN(C(=S)NC(=O)c2cncc(Br)c2)CC1	-47	2	i	-15	5	10	·	4
COCCC(=O)N(Cc1ccc2c(c1)OCO2)C(C(=O)NC1CCCCC1)c1ccncc1 (stereo not drawn)	-215	2	i	-9	7	5	-6	-11
CCn1ncc(C2=NOC(C(=O)NCc3ccc(Cl)cc3)C2)c1C (stereo not drawn)	-97	-2	i	57	14	-7	20	8
CC1CC(C)(C)NC(=S)N1CCCC(=O)N1CCN(c2ccc(F)cc2)CC1 (stereo not drawn)	13	-6	i	1	1	0	-39	-11
Cc1ccc(S(=O)(=O)C2(C(=O)Nc3ccc(C(C)C)cc3)CC2)cc1	-6	-2	i	-8	4	-3	-9	-6
COc1cc(NS(=O)(=O)c2ccc(NC(=S)NC(=O)c3ccc(F)c(F)c3)cc2)nc(OC)n1	-9	·	i	-1	4	3	-11	·
Cc1cccc(N)c1SC1CCCCC1O (stereo not drawn)	7	-10	i	11	3	4	·	8
O=C(c1ccc(-c2ccccc2Cl)o1)N1CCCC(C(F)(F)F)C1 (stereo not drawn)	·	·	·	35	-2	1	-6	·
CN=Cc1c(NC)nc2c(C)cccn2c1=O	·	-7	i	-11	1	3	-8	-7
CSc1ccc(CN(C)C(=O)CN2C(=O)NC3(CCCC3)C2=O)cc1	0	·	i	-15	1	3	-5	·
CN(C)C(CNC(=O)CSc1nc2sc3c(c2c(=O)n1C)CCC3)c1ccccc1 (stereo not drawn)	·	·	i	-12	-6	0	·	·
O=C(CCNC(=O)c1ccco1)Nc1nc(-c2ccccc2)cs1	?	·	·	0	3	3	-17	·
COc1cc(Cl)cc(/C=C/c2ccc3cccc(O)c3n2)c1OC	13	-4	i	46	13	2	-22	22
CC(C)OCCCNS(=O)(=O)c1ccc2c(c1)OCCO2	-48	-7	i	-1	6	1	15	-3
Nc1cc(=O)[nH]c(SCCSc2ccccc2F)n1	45	-5	i	-6	5	2	-20	1
Cc1cccc(N(C)C(=O)c2coc(=O)c3ccccc23)c1	21	-1	i	-3	-3	-5	-13	-7
CCOC(=O)c1cnc2cc(C)ccn2c1=O	-16	-5	i	4	3	-1	·	-2
CNc1nc(Cl)c(SC)c(NCc2cccc(OC)c2)n1	11	8	i	-9	-6	-9	-15	0
Cc1ccc(C)c(S(=O)(=O)NCc2ccc(C(=O)NCc3ccco3)cc2)c1	-24	-6	i	-11	0	3	7	-5
O=C(NC1CCCC1)c1c[nH]c2ccc(F)cc2c1=O	13	-5	i	-19	3	7	-19	8
O=C(COc1ccc(Cl)cc1Br)NC(=O)NC1CCCC1	-87	·	·	·	-2	1	-12	·
CCN(C(=O)COC(=O)CNC(=O)c1ccc(Cl)cc1Cl)c1c(N)n(Cc2ccccc2)c(=O)[nH]c1=O	1	·	·	-1	4	0	2	·
NC(=S)Nc1c(Cl)cccc1Cl	-13	-4	i	21	4	6	·	-3
CCc1nc2c(OCC(=O)c3ccc(Cl)cc3Cl)cccn2c1N(C)C(=O)COc1ccccc1	20	·	·	·	-10	-11	-20	·

Filtered by structure, the compounds so far with two or more sulfur atoms.
SMILES	HIV Env fusion	PABP polyA inh	Rce1 inh	CSC inhib	MT1-MMP act inh	MT1-MMP act inh RFP	UUG fidelity	eIF4H inh	others
COc1ccccc1CCN=C(N)NS(=O)(=O)c1cccs1	5	-1	i	-10	0	2	·	1
COc1ccc([N+](=O)[O-])cc1N(CC(=O)NCCSc1ccc(C)cc1)S(C)(=O)=O	45	-7	i	16	2	2	·	-9
CCCC(=O)Nc1ccc2nc(SCC(=O)N3CCCC3)sc2c1	-18	0	i	-3	1	-3	·	-9
O=C(c1ccc(NC2=NC3CS(=O)(=O)CC3S2)cc1)N1CCN(c2ccc([N+](=O)[O-])cc2)CC1 (stereo not drawn)	-2	1	i	-4	4	9	-17	9
CCOC(=O)c1sc(NC(=O)CSc2nc3c(cc2C#N)CCCCCC3)c(C#N)c1C	-2	-4	i	·	-48	-20	-15	2
FC(F)(F)c1cccc(NC(=S)NNC(=S)Nc2cccc(C(F)(F)F)c2)c1	·	-5	i	110*	·	·	·	4
Cc1csc(NC(=O)CSc2nnc(-c3ccoc3C)n2C(C)c2ccccc2)n1 (stereo not drawn)	21	-9	i	-11	-6	-8	-4	6
COc1cc(NS(=O)(=O)c2ccc(NC(=S)NC(=O)c3ccc(F)c(F)c3)cc2)nc(OC)n1	-9	·	i	-1	4	3	-11	·
CN(C)C(CNC(=O)CSc1nc2sc3c(c2c(=O)n1C)CCC3)c1ccccc1 (stereo not drawn)	·	·	i	-12	-6	0	·	·
Nc1cc(=O)[nH]c(SCCSc2ccccc2F)n1	45	-5	i	-6	5	2	-20	1

Only part of the results is shown; the hit share may differ from the screen's.
